MT1-MMP promoter – inhibitors of MT1-MMP promoter transcription, cell-based, luciferase reporter, luminescence (AID 618). MT1-MMP promoter luciferase reporter cells, luminescence. calls from a first round at 10 µM; hits with a dose series show EC50 in µM. hit rate 0.62% among 87,000;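 active = over half of the reporter light lost at 10 µM or EC50 under 50 µM; inactive = the rest and hits that failed the dose series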;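 note: actives suppress MT1-MMP promoter-driven transcription so potencies describe inhibitors; HT1080 fibrosarcoma cells; overnight exposure; toxic or luciferase-blocking compounds were not removed from the actives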
WNV protease inh – inhibitors of WNV NS2B-NS3 protease, primary screen, biochemical, fluorogenic substrate | z-score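 (tested at a level between 10 and 100 µM)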 | hit rate 0.18% among 65,000 | fluorogenic substrate Ex360/Em465; active compounds read low | Genome polyprotein (West Nile virus), P06935;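 active = z-score at -3 or under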;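 note: score is relative to mean and spread of the compound wells of a plate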
Target sequence (P06935 1371-1501 limits assumed): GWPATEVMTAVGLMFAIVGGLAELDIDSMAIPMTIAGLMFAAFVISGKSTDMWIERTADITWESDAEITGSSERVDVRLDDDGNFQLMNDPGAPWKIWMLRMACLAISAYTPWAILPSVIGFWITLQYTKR
Target sequence (P06935 1502-1679 limits assumed): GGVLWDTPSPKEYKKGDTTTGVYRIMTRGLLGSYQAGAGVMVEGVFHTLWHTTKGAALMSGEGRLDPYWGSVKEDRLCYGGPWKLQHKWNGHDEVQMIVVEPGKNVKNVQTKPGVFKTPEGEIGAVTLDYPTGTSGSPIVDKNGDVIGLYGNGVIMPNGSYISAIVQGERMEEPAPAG
Hsc70 – Hsc70 inhibitors, probe displacement, primary screen, biochemical, fluorescence polarization (AID 568) | Heat shock cognate 71 kDa protein (Homo sapiens) | Hsc70 fluorescence polarization, probe displacement; higher % means a stronger effect; strong numbers were not always called active | displacement, % at 20 µM, or IC50 in µM where a hit was titrated | 83,000 tested, under 10 active;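 active = displacement above 50% without optical interference and an IC50 on retest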;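 note: ATPase domain with a fluorescein-tagged ATP probe; 0% = vehicle and 100% = excess ADP; read after one hour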
The depositor's hits bear a star; i = inactive; / = no result given. This is a subset (hit frequency here may not be typical).

Value order: MT1-MMP promoter | WNV protease inh | Hsc70
C=CCOn1c(=O)c(=O)n(OCc2ccccc2)c2ccccc21
→ i | -1.22 | -0.6%
O=C(C1CCN(S(=O)(=O)c2cnc[nH]2)CC1)N1CCN(c2ncccn2)CC1
→ i | -0.71 | 2.2%
COCCN1C=C(C(=O)OC)C(c2ccc(OC)c(OC)c2)C(C(=O)OC)=C1
→ i | 0.32 | -0.1%
CCn1c(N2CCN(CC(=O)Nc3cccc(C)c3C)CC2)nc2ccccc21
→ i | -1.08 | -0.4%
O=c1c(/C=N/O)coc2ccc3ccccc3c12
→ i | -0.46 | 2.3%
CC(=O)Nc1ccc2c(c1)ncn2C
→ i | / | 6.3%
Cn1c(=O)oc2cc(S(=O)(=O)NCc3ccccn3)ccc21
→ i | -0.38 | -2.3%
CC1CCN(CC(=O)N2c3ccccc3CCc3ccccc32)CC1
→ i | -0.46 | -6.1%
COCCCn1c(SCc2cc(=O)[nH]c3ccccc23)nnc1-c1ccco1
→ i | 0.74 | 1.0%
O=C(Oc1ccnc2cc(Cl)ccc12)N1CCCCCC1
→ i | 0.67 | 0.8%
Cc1ccc(Cl)cc1N1CCN(C(CC(C)C)c2nnnn2CC2CCCO2)CC1 (stereo not given)
→ i | -1.39 | 3.1%
Cc1ccc(S(=O)(=O)Cn2nnnc2CN(Cc2ccco2)Cc2cccs2)cc1
→ i | -0.41 | -4.0%
Cc1cccc(C)c1OCC(=O)Nc1cccc(NC(=O)c2ccco2)c1
→ i | 0.1 | -1.1%
O=C(CCc1nc2cccnc2n1Cc1ccccc1)N1CCOCC1
→ i | / | -0.9%
COc1ccc2c(c1)C(=O)N(c1ccccc1OC)C(=O)C2(C)C
→ i | 1.72 | 1.0%
CCCN(CCC)c1nc2ccccc2nc1C(C#N)C(=O)OC(C)COC (stereo not given)
→ i | -0.28 | -7.3%
O=C(O)C1C2C=CC(C2)C1C(=O)OCc1ccccc1 (stereo not given)
→ i | 0.83 | 4.0%
CN(C)C(=O)CSc1nnc(C23CC4CC(CC(C4)C2)C3)o1
→ i | 0.51 | -3.8%
Cc1cc(NC(=O)CSc2cn(CCNC(=O)c3ccccc3)c3ccccc23)no1
→ i | 0.47 | -2.8%
COc1ccc(NC(=O)CN2CCN(C3c4ccccc4-c4ccccc43)CC2)c(OC)c1
→ i | 0.49 | -3.3%

(cont.)
Value order: MT1-MMP promoter | WNV protease inh | Hsc70
CCOc1ccc(S(=O)(=O)n2nnc3ccccc32)cc1C(C)C
→ i | 0.07 | 0.3%
COc1cc(C2Sc3ccccc3NC3=C2C(=O)OC3)cc(OC)c1OC (stereo not given)
→ i | / | -0.2%
CC1CCN(c2nc3ccccc3nc2N2CCC(C)CC2)CC1
→ i | / | -3.2%
COc1cc(/C=N/n2cnnc2)ccc1OC(=O)c1ccncc1
→ i | -1.27 | 16.0%
CCOC(=O)Nc1oc2ccccc2c(=O)c1C
→ i | / | 3.4%
N#C/C(=C1\CCCN1)c1ccc2ccccc2n1
→ i | -0.68 | 0.7%
Cc1ccccc1NC(=O)CSc1nnc(-c2ccccc2)n1-c1ccccc1
→ i | / | 0.7%
Cc1cnc(NC(=O)c2ccco2)s1
→ i | 1.57 | 0.9%
Cc1ccc(OCC(=O)N2CCC(N3CCCCCC3)CC2)cc1
→ i | 0.66 | 2.7%
O=C(NCc1ccco1)c1ccccc1-c1ccccc1
→ i | / | 2.5%
CC(C)c1ccc(-c2nc(N3CCCCC3)[nH]c(=O)c2C#N)cc1
→ i | 0.88 | -7.1%
CC(OC(=O)c1cc2sccc2n1C)C(=O)NCc1ccc2c(c1)OCO2 (stereo not given)
→ i | -0.63 | 2.2%
CC1(C)CC(=O)c2sc(NC(=O)CN3C(=O)CCC3=O)nc2C1
→ i | -0.62 | 1.6%
COC(=O)c1c(NC(=O)CN2CCN(c3ccccc3)CC2)c2c(C)cccc2n1C
→ i | 0.78 | 3.1%
O=C(Nc1cccnc1)c1cccs1
→ i | 0.81 | 8.4%
CCCc1nc2ccccc2[nH]1
→ i | / | -2.4%
CCC(c1nnnn1Cc1ccco1)N(Cc1cc2cc(C)cc(C)c2[nH]c1=O)CC1CCCO1 (stereo not given)
→ i | 1.72 | 3.0%
CCc1ccc(OCC(=O)Nc2ccc(-c3nc4ccccc4o3)c(O)c2)cc1
→ i | -0.83 | -6.8%
CC(=O)C1=C(C)Nc2ncnn2C1c1ccccc1Cl (stereo not given)
→ i | -1.53 | -8.9%
COc1ccc2cc(S(=O)(=O)N3CCOCC3)ccc2c1
→ i | -0.8 | -0.1%

Full records, looked up by structure.
Results for CCCc1nc2ccccc2[nH]1 → MT1-MMP promoter = i; WNV protease inh = /; Hsc70 = -2.4%
Results for CCc1ccc(OCC(=O)Nc2ccc(-c3nc4ccccc4o3)c(O)c2)cc1 → MT1-MMP promoter = i; WNV protease inh = -0.83; Hsc70 = -6.8%
Results for CCC(c1nnnn1Cc1ccco1)N(Cc1cc2cc(C)cc(C)c2[nH]c1=O)CC1CCCO1 (stereo not given) → MT1-MMP promoter = i; WNV protease inh = 1.72; Hsc70 = 3.0%

Other records follow.
Value order: MT1-MMP promoter | WNV protease inh | Hsc70
CC(=O)Nc1cccc(NC(=O)c2ccco2)c1
→ i | 0.06 | 3.8%
CCCSc1nc(C)cc(=O)[nH]1
→ i | -0.03 | -0.5%
O=C(CSc1ncn[nH]1)N1N=C2/C(=C/c3ccco3)CCCC2C1c1ccco1 (stereo not given)
→ i | / | -1.7%
Cc1cc(OCC(=O)N(C)C)c2c(-c3ccccc3)cc(=O)oc2c1
→ i | -0.8 | 1.6%
COc1cc2c(C(=O)NCc3ccccn3)cn(CC(C)C)c(=O)c2cc1OC
→ i | 1.56 | -0.8%
CCN(CC)S(=O)(=O)c1cccc(C(=O)OCc2cc(=O)n3nc(C)sc3n2)c1
→ i | 0.89 | 4.7%
Cc1cc(S(=O)(=O)N(Cc2ccc(C(C)C)cc2)CC2CCCO2)ccc1-n1cnnn1 (stereo not given)
→ i | / | 8.3%
Cc1ccc(O)c(NC(=O)c2cccc(NC(=O)c3ccco3)c2)c1
→ i | -1.12 | -5.1%
CC(=O)Nc1ccc(S(=O)(=O)CCC#N)cc1
→ i | -0.04 | -1.8%
Cc1ccc(Cn2ccc(NC(=O)c3cc(-c4ccco4)on3)n2)cc1
→ i | 0.89 | -8.4%
O=C(NCCCN1CCOCC1)c1cc(-c2cccs2)on1
→ i | 1.28 | 5.7%
CCn1c(C)csc1=NC(=O)c1ccccc1O
→ i | 0.14 | -0.1%
Nc1nc(CSc2nc3ccccc3[nH]2)nc(N2CCOCC2)n1
→ i | -0.3 | 0.4%
COc1ccc(CNCCCO)cc1OC
→ i | / | 3.1%
COCCOc1cc(Nc2nnc(C(F)(F)F)s2)c(Cl)cc1Cl
→ i | / | 3.2%
Cc1cccc(NS(=O)(=O)c2cccs2)n1
→ i | -0.28 | -4.8%
O=C(COC(=O)c1n[nH]c2ccccc12)NC(=O)NCc1ccco1
→ i | -0.01 | -4.0%
CCCCOC(=O)Cn1c(=N)n(CCC)c2ccccc21
→ i | -0.3 | 1.0%
COc1ccccc1C(=O)Nc1nc(-c2ccc(S(=O)(=O)N3CCOCC3)cc2)cs1
→ i | / | -7.8%
C#CC(C)(CC)NC(=O)c1cc(OC)c(OC)c(OC)c1 (stereo not given)
→ i | -1.22 | 2.4%

Following part
Value order: MT1-MMP promoter | WNV protease inh | Hsc70
CCOC(=O)N1CCN(C(=O)c2cccc(OC)c2OC)CC1
→ i | -1.28 | 2.9%
CC1(C)Oc2ccc(C(=O)N3CCCCC3)cc2N(CC(=O)NCc2ccccc2)C1=O
→ i | -0.85 | -5.5%
CC(=O)c1cccc(N2C(=NC(=O)C(C)C)SC3CS(=O)(=O)CC32)c1 (stereo not given)
→ i | 0.95 | 4.7%
Cc1ccc(-n2nnnc2SCC(N)=O)c(C)c1
→ i | 1 | 7.8%
COc1cccc(C2C(C(=O)c3cc4ccccc4o3)=C(O)C(=O)N2CCN(C)C)c1OC (stereo not given)
→ i | -0.15 | -8.7%
CCSc1nc2c(cnn2-c2ccc(C)cc2)c(=O)[nH]1
→ i | 1.52 | 3.9%
O=C(CCNS(=O)(=O)c1ccc2c(c1)CCC(=O)N2)Nc1ccc2c(c1)OCCO2
→ i | -0.95 | 3.8%
CCSc1nnc(NC(=O)CSc2nccn2-c2cccc(C)c2C)s1
→ i | -0.03 | -0.3%
COC(=O)c1sc(NC(=O)C2CCCCC2C(=O)O)c(C(=O)OC)c1C (stereo not given)
→ i | 0.31 | -2.7%
COc1ccc(OC)c(C(=O)c2ccc(C(=O)O)cc2)c1
→ i | -0.37 | -9.9%
CCn1c(SCC(=O)Nc2cccc(C)c2)nc2c(c1=O)SC(C)C2 (stereo not given)
→ i | -0.09 | -1.4%
CCN(CC)S(=O)(=O)c1ccc2c3c(cccc13)C(=O)S2
→ i | / | -2.7%
O=C(CCN1C(=O)C2C3C=CC(C3)C2C1=O)Nc1c(F)cc(F)cc1Br (stereo not given)
→ i | -2.35 | -0.6%
COCC(=O)Nc1nnc(Cc2ccc(OC)c(OC)c2)s1
→ i | 0.52 | -5.6%
CC(OC(=O)c1cccs1)C(=O)NCc1ccc2c(c1)OCO2 (stereo not given)
→ i | -0.05 | -3.4%
C=CCn1c(C(C)NC(=O)CC)nc2ccccc21 (stereo not given)
→ i | -0.77 | 6.2%
COc1ccc(NC(=O)CN2C(=O)CC(C)(C)S(=O)(=O)c3ccccc32)cc1
→ i | -1.46 | -0.4%
N#Cc1c(SCC(=O)Nc2nccs2)nc2c(c1-c1ccco1)CCCC2
→ i | 0.19 | -19.7%
CCCCN1C(=O)c2ccc(C(=O)Nc3cccnc3)cc2C1=O
→ i | -0.59 | -0.3%
CCOC(=O)c1c(C)[nH]c(C(=O)CN2CC(C)OC(C)C2)c1C (stereo not given)
→ i | -1.8 | -1.5%

Brought forward from above: 2 entries, then new ones.
Value order: MT1-MMP promoter | WNV protease inh | Hsc70
CCCCN1C(=O)c2ccc(C(=O)Nc3cccnc3)cc2C1=O
→ i | -0.59 | -0.3%
CCOC(=O)c1c(C)[nH]c(C(=O)CN2CC(C)OC(C)C2)c1C (stereo not given)
→ i | -1.8 | -1.5%
CC(=O)C(Sc1ncnc2c1nnn2-c1ccc(F)cc1)C(=O)N(C)C (stereo not given)
→ i | 0.53 | 3.7%
CNC(=O)n1ccc(C(=O)N2CCCCC2)n1
→ i | 1.25 | -2.6%
Cc1onc(-c2ccccc2Cl)c1C(=O)Nc1cc(=O)n(C)c(=O)n1C
→ i | -0.51 | -1.5%
O=C(CSCc1ccc(Cl)cc1)c1ccco1
→ i | 2.56 | -2.7%
CCN(C(=O)c1cn(C)c(=O)c2cc(OC)c(OC)cc12)c1ccccc1C
→ i | 0.07 | -4.2%
O=C(CCCCn1c(=O)[nH]c2ccsc2c1=O)NCC1CCCO1 (stereo not given)
→ i | -0.48 | 1.8%
Cc1noc(C)c1C(=O)NC(C)C1CCCO1 (stereo not given)
→ i | 1.24 | 6.7%
CCOC(=O)C1=C(CSc2nc(-c3ccncc3)ccc2C#N)OC(N)=C(C#N)C1c1cccnc1 (stereo not given)
→ i | -0.95 | -4.1%
CC(Sc1n[nH]c(N)n1)c1nc2scc(-c3cccs3)c2c(=O)[nH]1 (stereo not given)
→ i | / | -1.2%
CCOc1ccc(NC(C)c2cc(Cl)ccc2O)cc1 (stereo not given)
→ i | -0.52 | 8.5%
CCOC(=O)c1[nH]c2ccc(OC)cc2c1NC(=O)CCN1CCN(Cc2ccccc2)CC1
→ i | 0.29 | 1.7%
O=C(Cn1cnc2c(cnn2-c2ccccc2)c1=O)NC1CCCC1
→ i | -0.64 | 1.4%
COc1ccc(Cn2nnnc2CN(Cc2cc3cccc(C)c3[nH]c2=O)C2CCCC2)cc1
→ i | -0.02 | -7.4%
Cc1cc(NC(=O)c2cnccn2)no1
→ i | 1.48 | 50.8%
COc1ccc(C2CC(c3ccco3)n3ncnc3N2)cc1 (stereo not given)
→ i | -0.98 | 1.9%
COCCNC(=O)c1ccc(NC(C)=O)cc1
→ i | / | 2.4%
CC1(C)CC(=O)c2c(noc2-c2ccccc2)C1
→ i | 2.19 | -3.3%
COc1ccc(C)cc1NC(=O)c1cc2c(C)nc3ccccc3c2o1
→ i | 1.66 | -0.2%
CC(C)C(=O)Nc1ncc(C(F)(F)F)cc1Cl
→ i | / | 6.3%
CCOC(=O)C1=C(c2ccccc2)NC(=O)NC1c1ccc(OCC#N)c(OC)c1 (stereo not given)
→ i | 0.36 | -0.7%

New compounds follow
Value order: MT1-MMP promoter | WNV protease inh | Hsc70
COc1ccc(-c2sccc2C(C)C(=O)O)cc1 (stereo not given)
→ i | -0.67 | -3.6%
CS(=O)(=O)Nc1ccc(C(=O)NCCC2=CCCCC2)cc1
→ i | -0.09 | -2.0%
CC1CCN(c2c(NCc3ccc(C(=O)NCc4cccnc4)cc3)c(=O)c2=O)CC1
→ i | 0.78 | -2.2%
CC1(C)Cc2ccccc2C(=NCCCC(=O)O)N1
→ i | 0.64 | -4.3%
CCOC(=O)C1CCCN(c2cc(C)nc3cc(-c4ccc(F)cc4)nn23)C1 (stereo not given)
→ i | -0.55 | 0.0%
N#Cc1c(NC(=O)CN2CCN(S(=O)(=O)c3ccc4c(c3)OCCO4)CC2)sc2c1CCC2
→ i | -0.38 | -46.3%
O=S(=O)(NC1CCCCC1)c1ccc(-c2csnn2)s1
→ i | / | 2.7%
Cc1cc(NC(=O)c2cc(-c3cccs3)nc3ccccc23)no1
→ i | -0.29 | -2.0%
CCn1nnc(C(=O)O)c1C(=O)O
→ i | -0.11 | 2.1%
CCCCOC(=O)n1c(=O)oc2cc(S(=O)(=O)N3CCCCC3)ccc21
→ i | -0.58 | 4.7%
